TRHR PAM – qHTS for Small Molecule Agonists and Allosteric Enhancers of Human TRH Receptor: Primary Screen for Enhancers. TRHR cells, fluo-8 calcium fluorescence, EC20 TRH enhancement. 360,000 compounds, 0.66% hits. enhancement, % at 2 µM; in the data active = enhancement above about 30%; note: 0% is about no effect
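TRHR-expressing cells loaded with fluo-8 calcium dye were read kinetically (ex 480/em 530) during compound addition, then stimulated with an EC20 of TRH (10 nM final). Enhancement of the Gq-mediated intracellular calcium response was scored.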
D2 antagonist – HTS Assay for Allosteric Antagonists of the Human D2 Dopamine Receptor: Primary Screen for Antagonists; AID 485344, 2010; D(2) dopamine receptor (Homo sapiens), P14416; HEK293 TREx D2 cells, calcium flux, dopamine EC80; 340,000 compounds, 2% hits; inhibition, % at 10 µM; in the data active = inhibition above about 30%; note: 0% is about no effect
Target sequence (P14416 whole entry, looked up): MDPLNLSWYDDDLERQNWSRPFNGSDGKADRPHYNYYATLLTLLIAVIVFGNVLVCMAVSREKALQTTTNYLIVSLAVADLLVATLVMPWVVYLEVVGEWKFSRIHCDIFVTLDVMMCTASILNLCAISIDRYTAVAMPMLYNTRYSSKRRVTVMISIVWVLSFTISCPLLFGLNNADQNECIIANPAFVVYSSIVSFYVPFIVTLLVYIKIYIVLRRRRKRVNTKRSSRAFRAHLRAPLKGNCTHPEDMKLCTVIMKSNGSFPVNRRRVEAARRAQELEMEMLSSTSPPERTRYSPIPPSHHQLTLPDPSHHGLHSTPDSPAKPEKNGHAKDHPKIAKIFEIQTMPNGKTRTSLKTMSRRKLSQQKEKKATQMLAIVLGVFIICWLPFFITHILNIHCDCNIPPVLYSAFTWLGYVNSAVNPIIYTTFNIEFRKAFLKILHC
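Compounds are added to dye-loaded, induced HEK293 T-REx cells coupled to calcium release via D2; after a 3 min kinetic read an EC80 dopamine stimulus is given and fluorescence is recorded for 3 more min.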
RXFP1 antag – qHTS Assay for Antagonists of the Relaxin Receptor RXFP1 | 350,000 compounds, 0.59% hits | Relaxin receptor 1 (Homo sapiens), Q9HBX9 | HEK293-RXFP1, relaxin-stimulated cAMP HTRF, 30 min; stronger effect = lower value | activity change, negative = inhibition, % at 57.5 µM;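 active = activity change of -60% or lower, but not beyond a set lower limit; inconclusive = change between -60% and -40%, or beyond the set limit; inactive = change above -40%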; note: % is set by controls: 0 for no effect and ±100 for the full control effect
D2 ag – HTS Assay for Allosteric Agonists of the Human D2 Dopamine Receptor: Primary Screen for Agonists; activation, % at 2 µM; D(2) dopamine receptor (Homo sapiens), P14416; 340,000 compounds, 0.53% hits; HEK293 T-REx D2 cells, calcium flux agonist mode;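 active = activation over 3 SD above normal in the single-dose calcium agonist read, cut at about 30% in these data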; note: 0% is about no effect
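In this primary screen, compounds producing a positive calcium signal within 180 s of addition to tetracycline-induced, force-coupled HEK293 Trex D2 cells are flagged; cells are dye-loaded with a no-wash calcium kit beforehand.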
D2 potentiator – HTS Assay for Positive Allosteric Modulators of the Human D2 Dopamine Receptor: Primary Screen for Potentiators. AID 485347, 2010. D(2) dopamine receptor (Homo sapiens), P14416. potentiation, % at 10 µM. HEK293 T-REx D2, calcium flux, EC20 dopamine potentiation. 340,000 compounds, 0.34% hits;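 active = potentiation over 3 SD above the plate norm, cut at about 30% in these data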; note: 0% is about no effect
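Cells plated with tetracycline inducer and held overnight at 30 C; calcium dye loaded 30–90 min at room temperature; baseline taken, compound added and read 180 s; EC20 dopamine then added and read 180 s.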
TRHR ag – qHTS for Small Molecule Agonists and Allosteric Enhancers of Human TRH Receptor: Primary Screen for Agonists. Thyrotropin-releasing hormone receptor (Homo sapiens), P34981. TRHR cells, calcium flux fluo-8, FDSS agonist mode. activation, % at 2 µM. 360,000 compounds, 0.18% hits; in the data active = activation above about 30%; note: 0% is about no effect
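In this calcium-flux screen, cells bearing human TRHR are dye-loaded with fluo-8, baselined for 10 cycles, then exposed to library compounds; positive kinetic calcium responses during the agonist phase mark hits, with TRH as control.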
Numbers without * were called inactive; ? = inconclusive; / = not tested or not shown; & = joins results of further samples. Not all compounds are listed, so the mix of outcomes need not match the whole.

SMILES	TRHR PAM	D2 antagonist	RXFP1 antag	D2 ag	D2 potentiator	TRHR ag
CC1(C)SC2C(NC(=O)COc3ccccc3)C(=O)N2C1C(=O)O (stereo not drawn)	13&-5	11&-1	-11	1.2&-0.9	5&7	0.5&0.0
CO[C@H]1C=CO[C@@]2(C)Oc3c(C)c(O)c4c(O)c(c5c(nc6cc(C)ccn65)c4c3C2=O)NC(=O)C(C)=CC=C[C@H](C)[C@H](O)[C@@H](C)[C@@H](O)[C@@H](C)[C@H](OC(C)=O)[C@@H]1C	9	-16	/	1.0	19	0.0
O[C@@H](c1cc(C(F)(F)F)nc2c(C(F)(F)F)cccc12)[C@H]1CCCCN1	0	17	?	5.0	4	2.3
c1ccc2c(c1)CCCC2C1=NCCN1 (stereo not drawn)	-5	-15	7	-0.3	-7	-0.5
COc1ccc(C(=O)NCc2cccnc2)cc1C(=O)NCc1cccnc1	5	9	/	0.3	1	-1.3
CC(C)n1c(/C=C/[C@H](O)C[C@H](O)CC(=O)O)c(-c2ccc(F)cc2)c2ccccc21	2	-29	0	-2.3	5	-0.3
CCCC(=O)Nc1ncnc2c1ncn2[C@@H]1O[C@@H]2COP(=O)(O)O[C@H]2[C@H]1OC(=O)CCC	-7	14	/	0.8	2	-0.3
COc1cc(NS(C)(=O)=O)ccc1Nc1c2ccccc2nc2ccccc12	-7	-9	/	0.1	-15	-0.1
CC1=C(C(=O)O)N2C(=O)[C@@H](NC(=O)[C@H](N)c3ccccc3)[C@H]2SC1	-2	-4	-6	-0.3	12	0.1
CC(C)NCC(O)c1ccc(NS(C)(=O)=O)cc1 (stereo not drawn)	0	21	/	0.2	14	0.4
O=c1[nH]cc(F)c(=O)[nH]1	1	-2	2	-1.2	3	-0.3
CN/C(=C\[N+](=O)[O-])NCCSCc1ccc(CN(C)C)o1	-5	-5	5	0.0	-22	-0.4
Oc1c(Cl)cc(Cl)cc1Sc1cc(Cl)cc(Cl)c1O	-7	5	?	4.1	3	0.8
CCC(=O)O[C@@H]1CC(=O)O[C@H](C)CC=CC=C[C@@H](O)[C@H](C)C[C@H](CC=O)[C@H](O[C@H]2O[C@H](C)[C@@H](O[C@H]3C[C@@](C)(O)[C@@H](OC(=O)CC)[C@H](C)O3)[C@H](N(C)C)[C@H]2O)[C@H]1OC	-1	-31	/	1.6	-4	-0.6
OC1C(O)C(O)C(O)C(O)C1O (stereo not drawn)	9&-5&-3	-2&-4&-3	13	1.3&0.4&1.3	6&12&-3	0.5&0.3&-0.8
CCC1(c2ccccc2)NC(=O)N(C)C1=O (stereo not drawn)	-5	-7	/	-0.7	-1	-0.2
C/C(=C(/CCO)SSCC1CCCO1)N(C=O)Cc1cnc(C)nc1N (stereo not drawn)	-1	/	/	/	/	0.5
CN1CCC(OC(c2ccccc2)c2ccccc2)CC1	10	-17	-6	-1.6	-22	-0.8
Nc1ncnc2c1ncn2C1OC(CO)C(O)C1O (stereo not drawn)	22	-14	1	5.8	11	2.2
CC(=O)OC[C@H]1O[C@@H](n2ncc(=O)[nH]c2=O)[C@H](OC(C)=O)[C@@H]1OC(C)=O	-5	20	6	-1.9	3	-0.7

Profiles, quoted from the list.
CN1CCC(OC(c2ccccc2)c2ccccc2)CC1 as listed: TRHR PAM: 10; D2 antagonist: -17; RXFP1 antag: -6; D2 ag: -1.6; D2 potentiator: -22; TRHR ag: -0.8
CC(=O)OC[C@H]1O[C@@H](n2ncc(=O)[nH]c2=O)[C@H](OC(C)=O)[C@@H]1OC(C)=O as listed: TRHR PAM: -5; D2 antagonist: 20; RXFP1 antag: 6; D2 ag: -1.9; D2 potentiator: 3; TRHR ag: -0.7

Given as labelled records: entries from further up.
CN/C(=C\[N+](=O)[O-])NCCSCc1ccc(CN(C)C)o1
  TRHR PAM: -5; D2 antagonist: -5; RXFP1 antag: 5; D2 ag: 0.0; D2 potentiator: -22; TRHR ag: -0.4

Oc1c(Cl)cc(Cl)cc1Sc1cc(Cl)cc(Cl)c1O
  TRHR PAM: -7; D2 antagonist: 5; RXFP1 antag: ?; D2 ag: 4.1; D2 potentiator: 3; TRHR ag: 0.8

CCC(=O)O[C@@H]1CC(=O)O[C@H](C)CC=CC=C[C@@H](O)[C@H](C)C[C@H](CC=O)[C@H](O[C@H]2O[C@H](C)[C@@H](O[C@H]3C[C@@](C)(O)[C@@H](OC(=O)CC)[C@H](C)O3)[C@H](N(C)C)[C@H]2O)[C@H]1OC
  TRHR PAM: -1; D2 antagonist: -31; RXFP1 antag: /; D2 ag: 1.6; D2 potentiator: -4; TRHR ag: -0.6

OC1C(O)C(O)C(O)C(O)C1O (stereo not drawn)
  TRHR PAM: 9&-5&-3; D2 antagonist: -2&-4&-3; RXFP1 antag: 13; D2 ag: 1.3&0.4&1.3; D2 potentiator: 6&12&-3; TRHR ag: 0.5&0.3&-0.8

(continued)
SMILES	TRHR PAM	D2 antagonist	RXFP1 antag	D2 ag	D2 potentiator	TRHR ag
C[N+]1(C)CCC(OC(=O)C(O)(c2ccccc2)C2CCCC2)C1 (stereo not drawn)	/	/	7	/	/	/
Cc1ncc([N+](=O)[O-])n1CC(O)CCl (stereo not drawn)	-5	-15	11	1.0	-5	-0.4
Nc1ncn([C@@H]2O[C@H](CO)[C@@H](O)[C@H]2O)c(=O)n1	-3	-11	6	-1.0	9	0.1
CCC(=O)OCC(=O)C1(OC(=O)CC)[C@H](C)C[C@H]2[C@H]3[C@H]([C@@H](O)C[C@@]21C)[C@@]1(C)C=CC(=O)C=C1C[C@H]3Cl (stereo partly drawn)	4	-1	/	-1.2	-3	0.4
Oc1c(Cl)cc(Cl)c(Cl)c1Cc1c(O)c(Cl)cc(Cl)c1Cl	-6	-4	-63*	1.0	-5	0.8
C=C(CC)C(=O)c1ccc(OCC(=O)O)c(Cl)c1Cl	-2	-21	-71*	-1.1	-5	0.6
CCN(CC)CC(=O)Nc1c(C)cccc1C	-6&28&-2	15&20	11	-1.0&0.1	22&3	0.5&0.4&2.2

Source: PubChem (National Center for Advancing Translational Sciences (NCATS))
